KSHV LANA nucl: inhibitors of KSHV LANA-nucleosome binding, primary screen, biochemical, fluorescence polarization, FITC-LANA1-23, chicken nucleosomes; FITC-LANA1-23 / chicken nucleosome fluorescence polarization; active compounds read low; z-score (no concentration beside the values); 51,000 tested, 0.3% active; AID 720717, 2013;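 active = both repeat wells score below -2 in polarization z-score versus plate sample wells, excluding overly bright wells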;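 also: 100 nL library stock added to about 30 µL; numbers are from one replicate; some results filed as inactive read as strong as hits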
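Assay system: purified chicken nucleosomes with FITC-labelled LANA N-terminal peptide (1-23) / Probe or stimulus: 50 nM FITC-LANA1-23 probe / Compound dosing: pin-transferred compound, 100 nL / Times: compound with peptide–nucleosome mix 10–45 min at room temperature / Technique: fluorescence polarization, 480 nm excitation, 535 nm parallel and perpendicular emission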
BasE inh: BasE siderophore enzyme inhibitors, primary screen, biochemical, Acinetobacter baumannii ATCC 17978, fluorescence polarization; inhibition, % (concentration not given with the values); purified BasE, fluorescence polarization binding displacement; 84,000 tested, 0.1% active;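 active = both replicates above 25% with normal brightness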;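 also: 0% = negative plate control signal and 100% = positive plate control signal; stock transfer was 100 nL into about 30 µL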
* marks the source's active call; other numbers are inactive results; . = no result given; & = joins results of further samples. An excerpt; count on the stated rates, not on these rows.

SMILES	KSHV LANA nucl	BasE inh
CC(=O)OCC(=O)[C@@]1(OC(C)=O)[C@@H](C)CC2C3C[C@H](F)C4=CC(=O)C=C[C@]4(C)[C@@]3(F)[C@@H](O)C[C@@]21C (stereo not given in full)	0.93	.
NC(=O)c1nn(CC(=O)N2CCCN(S(=O)(=O)c3ccc(F)cc3)CC2)c(=O)c2ccccc12	.	3.6
O=c1[nH]c2ccc(N=Cc3cc(Br)c(O)c(Br)c3O)cc2[nH]1	-0.061	3.6
CSc1ncnc2sc(-c3ccccc3)cc12	0.32	-0.5
C=CCNc1sc(C(=O)C(C)(C)C)c(N)c1C#N	0.65	-3.9
CC1(C)Cc2ccccc2-c2nc(-c3ccccc3)n(CCO)c(=O)c21	.	0.8
Cc1ccc(N(C(=O)NC2CCCCC2)C2=NCCCCC2)cc1	.	1.6
Cc1csc(SCC(=O)c2ccc(S(=O)(=O)N3CCCCC3)cc2)n1	.	-1.4
O=C(Cc1n[nH]c(=O)c2ccccc12)OCc1nnc(-c2ccc(Cl)cc2)o1	.	2.9
CCc1ccc(NC(=O)CC(NCc2ccco2)C(=O)O)cc1 (stereo not given)	-0.01	1.4
c1ccc(NCCCNc2ccccc2)cc1	0.059	1.6
Cc1nn(C(C)(C)C)c2c1C(c1ccncc1)C1=C(CCCC1=O)N2 (stereo not given)	.	4.4
Cc1cc(C(=O)COc2ccc(NC(=O)c3ccco3)cc2)c(C)n1Cc1ccccc1	.	0.4
Cc1ccc(-c2nnn(CC(=O)c3ccc(Cl)s3)n2)cc1	.	-14
CC1Cc2ccccc2N1C(=O)CSc1nnnn1Cc1ccccc1 (stereo not given)	-0.72	-1.9
CCCc1cc(=O)[nH]c(SCc2ccccn2)n1	1	-0.3
C=CCN(CC=C)C(=O)C(C)N1CCN(C2CCCCC2)CC1 (stereo not given)	-0.84	-0.4
O=C(NC1CC1)c1ccc(C2SCC(=O)N2Cc2ccco2)cc1 (stereo not given)	-0.009	0.2
Cc1ccc(S(=O)(=O)N2CCN(C3CC(=O)N(Cc4ccccc4)C3=O)CC2)cc1C (stereo not given)	.	0.8
CCCn1c(SCC(=O)c2cc(C)n(C3CC3)c2C)nc2cc(S(N)(=O)=O)ccc21	.	3.9
CCCCNC(=O)c1cc(S(=O)(=O)N2CCCC(C)C2)ccc1F (stereo not given)	1	2.4
COc1ccc(-n2nc(C(=O)NCC(=O)NCc3cccnc3)c3ccccc3c2=O)c(OC)c1	-0.36	0.3
CC(C)C(=O)Nc1cccc(-c2nc3ccccc3s2)c1	.	2.5
CCCC(=O)NCCc1ccc(F)cc1	0.086	1.2
CC(=O)NCCc1ccc(-c2csc(N)n2)cc1	.	-0.1
CSc1cccc(NC(=O)c2ccc(=O)n(C)n2)c1	.	0.6
N#Cc1ccsc1NC(=O)CSc1ccccn1	.	0.6
CC(=O)N1CCc2c(sc(NC(=O)c3ccco3)c2C(N)=O)C1	-1.2	0.9
Cc1cc(S(=O)(=O)NCC2CCN(C(=O)OC(C)(C)C)CC2)c(C)o1	.	1.8
COCCNC(=O)c1ccc2c(=O)n3c(nc2c1)CCCCC3	-0.67	-0.7
CCOc1ccc(CCC(=O)O)cc1	.	1.0
CCOC(=O)CSc1nc(Nc2ccccc2)c2cnc(N3CCOCC3)nc2n1	.	3.1
O=c1[nH]c(Cn2nnc(-c3ccccc3)n2)nc2ccccc12	.	0.5
O=C(N/N=C/CSc1nc2ccccc2o1)c1ccccc1	.	2.3
Cc1ccc2nsnc2c1S(=O)(=O)NC(C)c1ccccc1 (stereo not given)	-0.35	-1.0
O=C(CS(=O)(=O)Cc1ccccc1)Nc1ccccn1	3	-2.2
CN[C@@H]1[C@@H](O[C@H]2O[C@H](CO)[C@@H](N)[C@H](O)[C@H]2O)O[C@H]2C[C@@H](N)[C@@H](O[C@H]3[C@H](O)[C@@H](O)[C@H](N)C[C@@H]3N)O[C@@H]2[C@@H]1O	0.067	.
CC(=O)N1C(=S)NC(=O)/C1=C\c1ccccc1Cl	-1	2.4
O=C(OCC(=O)N1CCN(c2ccccc2)CC1)c1ccc(-c2ccc(O)cc2)cc1	.	1.0
O=C(Cc1ccc(Cl)cc1)Oc1ccc2c(c1)OCO2	.	1.5

3 compounds out of the list above, sorted by the number in KSHV LANA nucl, low to high:
SMILES,KSHV LANA nucl
Cc1ccc2nsnc2c1S(=O)(=O)NC(C)c1ccccc1 (stereo not given),-0.35
CCCC(=O)NCCc1ccc(F)cc1,0.086
CCCCNC(=O)c1cc(S(=O)(=O)N2CCCC(C)C2)ccc1F (stereo not given),1

The main list resumes with the six entries that preceded the break.
SMILES	KSHV LANA nucl	BasE inh
Cc1ccc2nsnc2c1S(=O)(=O)NC(C)c1ccccc1 (stereo not given)	-0.35	-1.0
O=C(CS(=O)(=O)Cc1ccccc1)Nc1ccccn1	3	-2.2
CN[C@@H]1[C@@H](O[C@H]2O[C@H](CO)[C@@H](N)[C@H](O)[C@H]2O)O[C@H]2C[C@@H](N)[C@@H](O[C@H]3[C@H](O)[C@@H](O)[C@H](N)C[C@@H]3N)O[C@@H]2[C@@H]1O	0.067	.
CC(=O)N1C(=S)NC(=O)/C1=C\c1ccccc1Cl	-1	2.4
O=C(OCC(=O)N1CCN(c2ccccc2)CC1)c1ccc(-c2ccc(O)cc2)cc1	.	1.0
O=C(Cc1ccc(Cl)cc1)Oc1ccc2c(c1)OCO2	.	1.5
CC(C)c1ccc2c(c1)c1c3n2CCN(CC(N)=O)C3CCC1 (stereo not given)	-0.037	2.1
Cc1cccc(N2CCN(C(C)c3nc4ccccc4c(=O)[nH]3)CC2)c1C (stereo not given)	.	0.5
COc1ccc(-c2noc(-c3cccc(F)c3)n2)cc1	.	1.9
Cc1nn(-c2ccccc2)c2sc(C(=O)N(CC(=O)NC3CCCC3)C3CC3)cc12	-0.099	0.4
Nc1nc(SCc2cccc(Br)c2)n[nH]1	-0.89	2.1
O=C(CN1c2cccc3cccc(c23)S1(=O)=O)NCc1ccccc1	.	-3.1
O=C(O)C1C2CCCCC21 (stereo not given)	0.15	-2.2
c1ccc(C(c2ccccc2)N2CC(Sc3nc4ccccc4s3)C2)cc1	0.13	.
CCN1CCCC1CN1CNC(=S)NC1 (stereo not given)	.	-0.2
Cc1nn(-c2ccccc2)c2c1N(C(=O)CCC(=O)N1CCOCC1)CCS2	-1.5	1.1
O=C(O)c1ccc(COc2ccc(Cl)cc2CO)cc1	0.083	3.1
COc1ccc(NC(=O)C(C)n2c(=O)cc(C)c3c(C)nn(-c4ccccc4)c32)cc1OC (stereo not given)	0.096	2.6
Cc1cc(C(=O)N2CCc3ccccc3C2)c2ccccc2n1	.	2.1
Cc1onc(-c2c(Cl)cccc2Cl)c1C(=O)NC(=S)N1CCN(c2ccccn2)CC1	-0.86	0.3
O=C(CNCc1ccco1)Nc1ccc(Oc2ccccc2)cc1	0.56	2.4
Cc1cc(C)c(/C=N/NC(N)=O)c(C)c1/C=N/NC(N)=O	-0.75	1.1
CC1CC(c2ccccc2)n2ncnc2N1C(=O)c1ccccc1 (stereo not given)	-0.68	.
COC(=O)N/N=C/c1cccs1	0.85	-0.7
Cc1nn(-c2ccccc2)c(C)c1P(=Nc1ccc(Br)cc1)(N1CCOCC1)N1CCOCC1	.	-2.2
CC1(C)CC(=O)c2cc(C#N)c(SCc3ccccc3)nc2C1	.	-3.7

In the list so far, 3 have a tert-butyl group:
SMILES	KSHV LANA nucl	BasE inh
C=CCNc1sc(C(=O)C(C)(C)C)c(N)c1C#N	0.65	-3.9
Cc1nn(C(C)(C)C)c2c1C(c1ccncc1)C1=C(CCCC1=O)N2 (stereo not given)	.	4.4
Cc1cc(S(=O)(=O)NCC2CCN(C(=O)OC(C)(C)C)CC2)c(C)o1	.	1.8

Carrying on.
SMILES	KSHV LANA nucl	BasE inh
CC1(C)CC2CC(C)(CN2C(=O)CSc2nc3ccccc3c(=O)[nH]2)C1 (stereo not given)	.	1.1
CC1Cc2ccccc2N1NC(=O)c1ccc(Cl)c(S(N)=O)c1 (stereo not given)	0.98	-1.2
CC(C)C(NC(=O)c1ccco1)C(=O)N1CCC(Cc2ccccc2)CC1 (stereo not given)	.	1.1
O=C(CSc1nnc(-c2cccs2)o1)Nc1cc(C(F)(F)F)ccc1N1CCOCC1	.	0.9
CN1CCC(=NOC(=O)Nc2ccccc2)CC1	0.6	3.0
COCCNC(=O)c1ccc(CS(=O)(=O)Cc2ccc(C)cc2)o1	0.077	2.2
CCC1(C)N=c2c(c(=O)n(C)c(=O)n2C)=NO1 (stereo not given)	-0.55	3.6
Cc1cc(OCC(=O)N/N=C/c2ccc(I)o2)cc(C)c1Cl	-0.28	0.8
CCC(C(=O)N1CCN(c2ncccn2)CC1)n1ccc2cc(S(=O)(=O)N3CCCCC3)ccc21 (stereo not given)	.	-1.9
CCn1c(SCC(=O)Nc2ccc3c(c2)OCO3)nnc1C(C)NC(=O)c1ccccc1F (stereo not given)	-0.39	-0.5
N#Cc1c(/N=C/c2ccco2)sc2c1CCCC2	-1	1.9
Cc1cc(C(=O)Cn2ncc(Cl)c(Cl)c2=O)c(C)n1Cc1ccco1	.	-2.4
O=C(COCc1nc2ccccc2s1)Nc1ccc(-c2nnc3n2CCCCC3)cc1	.	-2.0
C[C@]12CCC(=O)C=C1CC[C@@H]1[C@@H]2C(=O)C[C@@]2(C)[C@H]1CC[C@]2(O)C(=O)CO	1.6&0.2	-2.8
CC(=O)Nc1ccc(S(=O)(=O)NC2CC(=O)N(c3ccc(F)cc3)C2)cc1 (stereo not given)	-0.097	0.8
CC(C)(C)N(Cc1ccccc1)C(=O)CSc1nc2c(cnn2-c2ccccc2)c(=O)[nH]1	.	-0.1
COc1cccc(N(CC(=O)N2CCC(C(N)=O)CC2)S(C)(=O)=O)c1	-1.6	2.2
c1ccc2c(c1)NCC2CN1CCOCC1 (stereo not given)	0.34	-1.7
CC(C)C(NC(=O)Cc1ccc(S(=O)(=O)N2CCOCC2)s1)c1nc2ccccc2[nH]1 (stereo not given)	.	-1.1
COc1ccc(-n2nc(C(=O)NCC(=O)N3CC(C)CC(C)C3)c3ccccc3c2=O)cc1 (stereo not given)	-1.6	-0.3
O=C(Cc1csc(-c2cccs2)n1)N1CCN(S(=O)(=O)c2ccccc2C(F)(F)F)CC1	.	-0.4
C=CCNc1cc(C(F)(F)F)nc(-c2ccccn2)n1	-1	.
Cc1cc(S(=O)(=O)Nc2cc(Br)c3oc4c(c3c2)C(=O)CCC4)ccc1Cl	.	2.5
Cn1cc(S(=O)(=O)N2CCCC2)cc1C(=O)NC1CCN(Cc2ccccc2)CC1	1.5	-2.0
S=c1cc(-c2ccccc2)[nH]c(=S)[nH]1	0.48	2.2
Cc1csc(SCC(=O)c2ccc3c(c2)OCO3)n1	.	5.3
O=C(NC1CCCCCCC1)C1CCCN(c2nc3ccccc3o2)C1 (stereo not given)	-0.8	0.6
O=NN(CCCl)C(=O)NC1CCCCC1	1.5	.
N#CCSCC(=O)Nc1ccccc1	2.4	1.3
COc1ccc(CSCCN)cc1Cl	0.3	-2.7
Cc1ccc(CC23CN4CC(CN(C4)C2)C3=O)c(C)c1	-0.43	-1.1
Cn1ccsc1=NC(=O)c1cccc(S(=O)(=O)N2CCc3ccccc32)c1	.	2.6
CNC(=O)c1ccccc1S(=O)c1ccccc1CO (stereo not given)	2.1	-1.7
Cc1cc(NC(=O)CN(Cc2ccccc2)S(=O)(=O)/C=C/c2ccccc2)no1	.	1.2
CNC(=O)c1cn2c3c(ccc(Cl)c3c1=O)OC(C)C2 (stereo not given)	-0.15	-3.2
Cc1noc(C)c1NC(=O)NC1CCCCNC1=O (stereo not given)	.	-4.1
CS(=O)(=O)N1CCN(S(=O)(=O)c2ccccc2)CC1	-0.41	0.9
CCC1(C)NC(=O)N(/N=C/C2CC=CCC2)C1=O (stereo not given)	.	1.3
CNC(=O)c1ccccc1S(=O)c1cccc2cccc(C(=O)O)c12 (stereo not given)	.	1.7
CCN(CC)S(=O)(=O)c1ccc(Cl)c(C(=O)OC)c1	-1.3	0.3
CCNc1nc(CN2CCOCC2)nc2scc(-c3ccccc3)c12	.	0.0
O=C1CCCCC1Sc1nc2sccc2c(=O)n1-c1ccccc1 (stereo not given)	.	-0.4
CCOc1ccc(C=Nc2ccc3sc(C)nc3c2)cc1	.	1.1
Cc1[nH]c2ccccc2c1C(=O)COC(=O)C1CC(=O)N(Cc2ccco2)C1 (stereo not given)	.	-2.0
COC(=O)c1cc(-c2cccs2)nc2ccccc12	-0.95	2.4
Cc1c(CCC(C)C)c(NCCN2CCOCC2)n2c(nc3ccccc32)c1C#N	0.22	2.4
CCN(CC)S(=O)(=O)c1cccc(-c2nn(CN3CCN(c4ccc(O)cc4)CC3)c(=S)o2)c1	.	0.0
O=C1OC2(O)C3C4C=CC(C4)C3C(=O)N2c2ccccc21 (stereo not given)	-0.58	0.8
O=C(c1cnn2c1NC(c1cccs1)CC2C(F)(F)F)N1CCSCC1 (stereo not given)	0.18	2.6
CCC(C)NC(=O)CN1CCc2cc(-c3csc(C)n3)ccc21 (stereo not given)	.	-2.1
CCNC(=O)c1cc(-c2ccccc2)nc2c1cnn2C(C)C	.	0.4
Cc1ccc(C2=NN(C(=O)COC(=O)c3c(-c4ccccc4)noc3C)C(c3ccco3)C2)cc1 (stereo not given)	.	0.1

Random excerpt: 5 entries already listed, in no set order.
SMILES	KSHV LANA nucl	BasE inh
CCOc1ccc(C=Nc2ccc3sc(C)nc3c2)cc1	.	1.1
COC(=O)c1cc(-c2cccs2)nc2ccccc12	-0.95	2.4
CCNc1nc(CN2CCOCC2)nc2scc(-c3ccccc3)c12	.	0.0
Cc1ccc(C2=NN(C(=O)COC(=O)c3c(-c4ccccc4)noc3C)C(c3ccco3)C2)cc1 (stereo not given)	.	0.1
O=C1OC2(O)C3C4C=CC(C4)C3C(=O)N2c2ccccc21 (stereo not given)	-0.58	0.8
